Screens as filed in PubChem.
HCMV NEC inh: inhibitors of HCMV UL50-UL53 interaction, biochemical, HTRF. inhibition, % (test concentration not listed). normalized percent inhibition. 0.15% of 190,000 active. HCMV UL50-UL53 nuclear egress complex (human cytomegalovirus);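 active means both replicates at 50% or more, plus weaker picks with an unusually low signal ratio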;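 further: stock transfer was 100 nL into about 20 µL; 0% = negative control wells and 100% = wells with untagged competitor protein; inactives centre near -12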
Sa growth 42C: S. aureus growth inhibition at 42 and 30 °C, primary screen, LtaS inhibitor project, RN4220, two temperatures. 0.53% of 170,000 active. AID 720641, 2013. relative growth, % (test concentration not listed). OD600, 20 h, 42 °C; active compounds read low;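 active means growth at 42 °C up to 50% and 20 or more points under that at 30 °C, or under 10% at both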;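 further: 300 nL library stock went into each well; scaled to the means of positive and negative controls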
GIV Gai3 FP: inhibitors of GIV peptide binding to Galpha-i3, primary screen, biochemical, fluorescence polarization, FITC-GIV GBA peptide, rat Galphai3; Guanine nucleotide-binding protein G(i) subunit alpha-3 (Rattus norvegicus), P08753; 90 min; active compounds read low; scaled: aluminum fluoride 0%, vehicle 100%; percent of control (FP), % (no concentration beside the values); 0.42% of 210,000 active;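 active means replicate mean at 85% of control or lower, very high polarization wells dropped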;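 further: wells of about 15 µL received 100 nL stock; the first replicate is given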
Target sequence (P08753 whole entry, looked up): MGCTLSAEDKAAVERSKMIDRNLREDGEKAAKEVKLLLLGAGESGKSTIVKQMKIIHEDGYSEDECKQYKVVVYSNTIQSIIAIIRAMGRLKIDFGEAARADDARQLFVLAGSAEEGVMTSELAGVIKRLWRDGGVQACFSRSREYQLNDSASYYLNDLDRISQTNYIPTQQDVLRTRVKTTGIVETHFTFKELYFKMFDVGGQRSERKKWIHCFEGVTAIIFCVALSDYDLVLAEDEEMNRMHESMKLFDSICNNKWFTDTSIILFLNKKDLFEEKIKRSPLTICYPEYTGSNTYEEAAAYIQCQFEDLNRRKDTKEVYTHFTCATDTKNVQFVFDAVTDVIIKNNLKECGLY
Sa growth 42C second temp: also measured in Sa growth 42C; calls as there; relative growth, %; measured here: growth at 30 °C;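 optical density after 20 h as mean of two plates; 100% = untreated growth and lower means inhibition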
An asterisk follows results filed as active; / = no result given; & = joins results of further samples. The order is random; any-hit rate near 0.85%.

SMILES | HCMV NEC inh | Sa growth 42C | Sa growth 42C second temp | GIV Gai3 FP
CCOC(=O)N1CCc2c(sc3c2C(=O)NC(c2ccccc2F)N3)C1 (stereo not given) | -31 | 86 | 87 | 96
Cc1ccc(CN(C(=O)COc2cccc([N+](=O)[O-])c2)c2ccccn2)o1 | -49 | 106 | 82 | 105
NC(=O)c1nn(CC(=O)N2CCCN(S(=O)(=O)c3ccc(F)cc3)CC2)c(=O)c2ccccc12 | -11 | 86 | 86 | /
O=C(COC(=O)C12CC3CC(CC(C3)C1)C2)Nc1cc(F)ccc1F | -26 | 114 | 85 | /
O=c1[nH]c2ccc(N=Cc3cc(Br)c(O)c(Br)c3O)cc2[nH]1 | -66 | 104 | 79 | 107
CC(C)OC(=O)CSc1nc2nc[nH]c2c(=O)[nH]1 | -14 | / | / | 99
O=C(c1cc(-c2ccccc2O)no1)N1CCOCC1 | / | 102 | 88 | 97
Cc1cccc(CN2CCC(CNC(=O)c3cc4c(C)nc5ccccc5c4o3)CC2)c1 | 4 | / | / | 108
CC1CCC(NC(=O)CCc2cn(Cc3ccc(F)cc3)c3ccccc23)CC1 (stereo not given) | / | 102 | 91 | 104
C[C@]12CC[C@@H]3c4ccc(O)cc4CC[C@H]3[C@@H]1CC[C@@H]2O | -29&-8&-8&-27 | 91&92 | 77&70 | 101&103
CC1(C)CC(CCC(=O)Nc2ccccc2Cl)C(=O)O1 (stereo not given) | -19 | 100 | 90 | 96
Cc1ccc(/C(O)=C2\C(=O)C(=O)N(C)C2c2ccccc2)cc1 (stereo not given) | -29 | 118 | 88 | /
CCc1nc2ccc(C(=O)N3CCN(c4cccc(OC)c4)CC3)cc2nc1CC | / | 130 | 86 | 108
Cc1cc(C(=O)CSc2ncn[nH]2)c(C)n1CC(F)(F)F | -28 | 82 | 85 | /
Cc1csc(SCC(=O)c2ccc(S(=O)(=O)N3CCCCC3)cc2)n1 | -30 | 92 | 93 | /
CCOC(=O)c1[nH]c(C(=O)O)c(C(=O)OCc2ccccc2)c1CCC(=O)O | -13 | 96 | 82 | /
COc1ccc(-c2nc3n(c2C(=O)N2CCCC2)CCS3(=O)=O)cc1 | -6 | / | / | 104
CC1(C)Cc2ccccc2-c2nc(-c3ccccc3)n(CCO)c(=O)c21 | / | 110 | 99 | 102
CCN(CC)c1ccc(CNS(=O)(=O)c2cc3c(cc2C)NC(=O)CO3)cc1 | / | 99 | 82 | 96
O=C(/C=C/c1cccs1)NCCCN1CCOCC1 | -47 | 141 | 89 | /
CCCn1cnc2nc(CSc3ccccc3NC(=O)Nc3ccc(C)c(C)c3)cc(=O)n21 | 1 | / | / | 102
O=C(NCc1ccccc1)c1ccc(CSc2nc3cccnc3n2Cc2ccccc2F)cc1 | / | 101 | 101 | 99
Cc1ccc(N(C(=O)NC2CCCCC2)C2=NCCCCC2)cc1 | -31 | 76 | 85 | /
N#CCC1(C#N)C2CC3CC(C2)CC1C3 (stereo not given) | -6 | 98 | 67 | 98
CSc1ncnc2sc(-c3ccccc3)cc12 | -30 | 98 | 52 | 112

More structures
SMILES | HCMV NEC inh | Sa growth 42C | Sa growth 42C second temp | GIV Gai3 FP
C=CCNc1sc(C(=O)C(C)(C)C)c(N)c1C#N | 9 | 73 | 75 | 117
CCc1ccc(NC(=O)Cn2cc(S(=O)(=O)N3CCCC3)c(S(=O)(=O)N3CCCC3)c2)cc1 | / | 80 | 82 | 104
CC1=C(c2ccc(C)c(C)c2)S(=O)(=O)N(CC(=O)O)C1=O | -11 | / | / | 100
O=C1CN(C(=O)c2ccccc2)C(c2ccccc2)c2cc(F)ccc2N1 (stereo not given) | / | 111 | 96 | 98
N#Cc1cc2c(nc1SCC(=O)Nc1ccc(S(N)(=O)=O)cc1)CCCCC2 | 0 | / | / | 105
CCCCc1nc(OCC(=O)c2ccccc2)c(C#N)c2c1COC(C)(C)C2 | 1 | 108 | 85 | /
O=c1c2c(nc3c(-c4ccccc4)c[nH]n13)CCCC2 | 7 | 113 | 85 | 110
CCOc1ccc(CNCCSc2nnnn2C)cc1Cl | 1 | / | / | 100
CCCOC(=O)c1c(NC(=O)c2cc3nc(-c4ccc(OC)cc4)cc(C(F)(F)F)n3n2)sc2c1CCCC2 | -28 | 104 | 94 | 108
CCOC(=O)C1C2C=CC3(CN(Cc4ccc(C)cc4)C(=O)C13)O2 (stereo not given) | 14 | 79 | 101 | /
O=C(O)CCCc1nnc2c(=O)n(-c3ccc(Cl)cc3)ccn12 | 5 | 91 | 93 | 103
O=C(CN1CCOCC1)Nc1ncc(Cc2ccc(Cl)cc2)s1 | -12 | 103 | 76 | 109
Cc1ccccc1CNC(=O)c1ccc(Cn2c(SCc3ccccc3)nc3cccnc32)cc1 | / | 132 | 100 | 102
Cc1c(NC(=O)c2ccc3c(c2)OCCO3)cccc1-c1nc2ncccc2o1 | 6 | 103 | 101 | 106
O=C(OCC(=O)N1CCOCC1)c1ccccc1Cc1ccccc1 | -15 | 105 | 91 | /
CCOC(=O)CNC(=O)N1CCCN(S(=O)(=O)c2ccc3c(ccn3CC)c2)CC1 | / | 74 | 85 | 99
O=C(O)C1C2C=CC(C2)C1C(=O)N1CCc2ccccc2C1 (stereo not given) | 19 | 107 | 93 | 100
COc1cccc(-c2nc(CN3CCC(=O)CC3)cs2)c1 | -23 | 103 | 86 | /
CCOC(=O)C1CCCN(Cc2ccc(CC)cc2)C1 (stereo not given) | -6 | 107 | 108 | 101
O=C1NCCCCC1NC(=S)Nc1ccccc1 (stereo not given) | -15 | 99 | 90 | 102
O=C(COC(=O)c1ccccc1NCc1ccco1)c1ccc2[nH]c(=O)[nH]c2c1 | -9 | 95 | 98 | /
Nc1ccnn1Cc1ccsc1 | -4 | 78 | 82 | /
CC1=CC(=O)C(C(=O)/C=C/c2ccc(N3CCCCC3)cc2)C(=O)O1 (stereo not given) | -8 | 84 | 96 | /
COc1ccc(-c2noc(N3CCC(C(N)=O)CC3)n2)cc1OC | -20 | 101 | 92 | 106
COC(=O)CCCCC1SCC(NC(=O)c2ccccc2)C1OC(C)=O (stereo not given) | 3 | 100 | 104 | 101

By substructure, the compounds so far containing a thiophene ring, fused or not (six)
SMILES | HCMV NEC inh | Sa growth 42C | Sa growth 42C second temp | GIV Gai3 FP
CCOC(=O)N1CCc2c(sc3c2C(=O)NC(c2ccccc2F)N3)C1 (stereo not given) | -31 | 86 | 87 | 96
O=C(/C=C/c1cccs1)NCCCN1CCOCC1 | -47 | 141 | 89 | /
CSc1ncnc2sc(-c3ccccc3)cc12 | -30 | 98 | 52 | 112
C=CCNc1sc(C(=O)C(C)(C)C)c(N)c1C#N | 9 | 73 | 75 | 117
CCCOC(=O)c1c(NC(=O)c2cc3nc(-c4ccc(OC)cc4)cc(C(F)(F)F)n3n2)sc2c1CCCC2 | -28 | 104 | 94 | 108
Nc1ccnn1Cc1ccsc1 | -4 | 78 | 82 | /

Next section:
SMILES | HCMV NEC inh | Sa growth 42C | Sa growth 42C second temp | GIV Gai3 FP
CCCCc1nn2c(=O)cc(COC(=O)c3cccc(NC(=O)CCc4ccccc4)c3)nc2s1 | / | 105 | 81 | 107
OC(COc1ccc(N=Cc2ccc(Cl)cc2)cc1)CN1CCCCC1 (stereo not given) | / | 104 | 82 | 103
CN1C(=O)/C(=C/c2ccccc2OCc2ccc(C(=O)O)cc2)NC1=S | / | 119 | 84 | 100
O=Nc1c(O)n(CN2CCCCC2)c2ccccc12 | / | 79 | 64 | 113
O=c1cc(CSc2nnc(-c3cccc(Cl)c3)o2)nc2sccn12 | -23 | / | / | 101
CCNC(=S)N1CCN(CCN=Cc2c(O)[nH]c(=O)[nH]c2=O)CC1 | -3 | 97 | 98 | 102
CSc1ncc(-c2ccc(Cl)cc2)n1C | -4 | 108 | 83 | 98
Cc1cc(S(=O)(=O)NC2CCN(Cc3ccccc3)CC2)c(C)cc1Cl | 2 | 109 | 105 | 102
CC(C)NC(=O)c1ccccc1NS(=O)(=O)Cc1ccccc1 | -6 | 99 | 102 | 107
CCc1cccc(CC)c1NC(=O)c1c(C)oc2ccc(O)c(CN3CCN(C)CC3)c12 | -9 | 105 | 90 | 100
O=C(O)c1nccnc1C(=O)Nc1ccc(N2CCOCC2)cc1 | -6 | 106 | 94 | 108
O=C(Nc1ccccc1C(F)(F)F)c1ccc(F)c(S(=O)(=O)N2CCc3ccccc3C2)c1 | / | 99 | 84 | 102
CC1(C)C=Cc2c(c3ccccc3[nH]c2=O)O1 | -30 | 106 | 84 | 106
CCN1C(=C(C#N)C#N)C=Cc2cc(C)ccc21 | -46 | 87 | 94 | 125
COC(=O)c1ccc(CSc2nc(C)nc3sc4c(c23)CCCC4)o1 | -14 | 91 | 94 | /
CC(=O)N1CCN(c2ncnc3nc[nH]c23)CC1 | / | 96 | 94 | 108
CCCC(C(=O)O)n1cnnn1 (stereo not given) | -14 | 93 | 89 | 105
COc1ccc(CNC(=O)Cn2ccc3cc(S(=O)(=O)N4CCCCC4)ccc32)c(OC)c1 | / | 111 | 96 | 104
COc1ccccc1OCCNC(=O)c1n[nH]c2ccccc12 | -10 | 98 | 89 | /
CCc1oc2cc(OC(C)=O)ccc2c(=O)c1-c1ccc2c(c1)OCCO2 | -14 | 90 | 90 | 105
COc1ccc(CNC(=O)C2CCCN(C(=O)c3[nH]c(C)cc3C)C2)cc1 (stereo not given) | 12 | / | / | 105
O=C(CCc1ccccc1)NCCc1csc(-c2ccc(F)cc2)n1 | -21 | / | / | 103
CC(=O)Nc1cccc(-n2cnnc2)c1 | -6 | / | / | 98
CC(=O)c1ccc(NC(=O)c2cc(-c3ccc(C)s3)nc3ccccc23)cc1 | -10 | 87 | 84 | 106
CCn1c(SCC(=O)N2c3ccccc3Sc3ccccc32)nnc1-c1ccco1 | -16 | 113 | 92 | 105

Other records:
SMILES | HCMV NEC inh | Sa growth 42C | Sa growth 42C second temp | GIV Gai3 FP
COc1cccc(CNC(=O)c2cnc(N3CCCCC3)c3ccccc23)c1 | / | 116 | 99 | 110
Cc1c(C(=O)O)oc2ccc(S(=O)(=O)N3CCCCCC3)cc12 | -24 | 95 | 87 | 99
COc1ccc(NC(=O)c2ccccc2OCc2ccccc2)cn1 | -19 | 109 | 88 | /
O=C(COC(=O)c1ccc(Cl)nc1)c1cc2c3c(c1)CC(=O)N3CCC2 | 16 | 118 | 93 | /
N#Cc1ccccc1NC(=O)C(=O)NCC(c1cccnc1)N1CCc2ccccc2C1 (stereo not given) | -22 | 118 | 80 | 107
CSc1nnc(SC2CC(=O)N(c3cc(Cl)cc(Cl)c3)C2=O)s1 (stereo not given) | -10 | 90 | 93 | /
O=C(O)c1ccccc1SC1CCS(=O)(=O)C1 (stereo not given) | 4 | 102 | 100 | /
N=C1SCC(=O)N1c1nccs1 | -11 | 14 | 1 | /
COc1ccc(C(=O)CSc2nnc3sc4ccccc4n23)cc1OC | -18 | / | / | 102
COc1ccc(C2=NN(C(=O)CCC(=O)O)C(c3ccccc3F)C2)cc1 (stereo not given) | -45 | / | / | 102
Cc1ccc2nc(-c3ccc(NC(=O)c4cc(C)on4)cc3)sc2c1 | -4 | 114 | 94 | 109
C=CCN1C(=O)C(C(=O)Nc2ccc(C)cc2)C2CC1(C)Oc1ccccc12 (stereo not given) | -2 | 110 | 71 | 100
Cc1cc(C)nc(SCC(=O)OCC(=O)c2ccc3[nH]c(=O)[nH]c3c2)n1 | -40 | 82 | 82 | /
Cc1cc(C)c2c(N)c(C3=NC(C)(C)Cc4ccccc43)sc2n1 | -14 | 85 | 80 | /
CC1CN(c2ncnc3c2cnn3-c2ccccc2)CC(C)O1 (stereo not given) | -19 | 95 | 84 | 98
COc1ccc(C2=NN(C(=O)CCC(=O)O)C(c3ccc(F)cc3)C2)cc1 (stereo not given) | -33 | / | / | 102
Cc1cccc(OC(=O)c2cc(-c3ccc(Cl)cc3)on2)c1C | 11 | 103 | 92 | 98
CCOC(=O)c1cc(NC(=O)c2ccccc2)c(=O)n2c1oc1ccc(Cl)cc12 | 14 | 100 | 97 | 108
Cc1oc(-c2ccccc2Cl)nc1CSCC(=O)N1CCCC1 | / | 106 | 79 | 102
COc1ccccc1-c1nnc(SCC(=O)c2cc(C)n(C)c2C)n1C | 4 | 94 | 94 | /
COc1ccc(CN(C(=O)CSc2nnc(-c3ccc(OC)c(OC)c3)o2)c2ccc(F)cc2)cc1 | -15 | 101 | 82 | 95
N=C1S/C(=C\c2cc([N+](=O)[O-])c(N3CCOCC3)cc2N2CCOCC2)C(=O)N1c1ccc(F)cc1 | 6 | / | / | 115
Cc1cccc(C)c1N(CC(=O)NN=C1CCCCCC1)S(C)(=O)=O | -9 | 97 | 93 | 99
c1ccc(CN=C2NN=C(c3ccccc3)CS2)cc1 | -2 | 93 | 95 | /
Cc1ccc2onc(CC(=O)N3CCN(c4cc(Cl)ccc4C)CC3)c2c1 | 8 | 97 | 103 | 99

Nothing new here: an excerpt of the list.
SMILES | HCMV NEC inh | Sa growth 42C | Sa growth 42C second temp | GIV Gai3 FP
O=C(O)c1ccccc1SC1CCS(=O)(=O)C1 (stereo not given) | 4 | 102 | 100 | /
N=C1SCC(=O)N1c1nccs1 | -11 | 14 | 1 | /
COc1ccc(C(=O)CSc2nnc3sc4ccccc4n23)cc1OC | -18 | / | / | 102
COc1ccc(C2=NN(C(=O)CCC(=O)O)C(c3ccccc3F)C2)cc1 (stereo not given) | -45 | / | / | 102
Cc1ccc2nc(-c3ccc(NC(=O)c4cc(C)on4)cc3)sc2c1 | -4 | 114 | 94 | 109
